Source: PubChem BioAssay
D2 potentiator – human D2 receptor positive allosteric modulation; 0.23% of 360,000 active; DiscoveRx D2 beta-arrestin cells, luminescence, 90 min; 100% = 57 uM dopamine signal; potentiation, % (no concentration beside the values); AID 624464; active = potentiation of 50% or more; inconclusive = 30% to 50%; inactive = 30% or less;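 further: compound concentration not given in the record; tested on top of an EC20 dose of dopamine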
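PathHunter beta-arrestin assay in DiscoveRx D2 cells. Compounds were added with an EC20 of dopamine (50 nM final) for 90 min at 37 deg C. Luminescence was read 1 h after detection reagent, with 57 uM dopamine as the EC100 control.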
TRPV1 PAM – human TRPV1 potentiation. TRPV1-expressing cells, Fluo-8 calcium influx, capsaicin EC20 potentiation; host cell line not named in the record; control for the full effect not named in the record. 0.02% of 320,000 active. potentiation, % at 8.33 µM. Q8NER1; active means potentiation above 80%; inconclusive means 30% to 80%; inactive means below 30%; further: 0% is about no effect
Target sequence (Q8NER1 whole entry, looked up): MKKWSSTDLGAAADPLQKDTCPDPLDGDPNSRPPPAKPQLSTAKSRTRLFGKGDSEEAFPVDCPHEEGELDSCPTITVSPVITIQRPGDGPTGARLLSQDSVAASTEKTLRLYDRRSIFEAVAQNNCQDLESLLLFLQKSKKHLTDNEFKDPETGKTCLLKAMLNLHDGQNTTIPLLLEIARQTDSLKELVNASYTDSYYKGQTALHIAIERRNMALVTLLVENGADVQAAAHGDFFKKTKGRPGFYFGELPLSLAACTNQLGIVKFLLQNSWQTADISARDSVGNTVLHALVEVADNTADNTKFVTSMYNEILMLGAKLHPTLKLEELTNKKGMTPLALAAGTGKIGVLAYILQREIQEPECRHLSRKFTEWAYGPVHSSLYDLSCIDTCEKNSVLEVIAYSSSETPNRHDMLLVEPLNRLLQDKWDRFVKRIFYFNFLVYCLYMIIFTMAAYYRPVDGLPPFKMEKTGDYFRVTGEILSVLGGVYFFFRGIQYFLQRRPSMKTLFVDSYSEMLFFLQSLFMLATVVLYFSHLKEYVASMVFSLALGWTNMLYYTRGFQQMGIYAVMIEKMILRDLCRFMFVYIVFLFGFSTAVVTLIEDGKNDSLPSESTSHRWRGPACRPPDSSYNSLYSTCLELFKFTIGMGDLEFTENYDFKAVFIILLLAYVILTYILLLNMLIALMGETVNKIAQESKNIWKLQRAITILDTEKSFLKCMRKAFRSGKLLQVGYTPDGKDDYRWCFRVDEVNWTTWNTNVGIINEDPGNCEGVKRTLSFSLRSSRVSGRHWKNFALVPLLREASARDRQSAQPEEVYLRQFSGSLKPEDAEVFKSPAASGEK
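Fluo-8 calcium influx in TRPV1-expressing cells, kinetic read (ex 480/em 520 nm). Compound added and read 3 min for agonist activity, followed by capsaicin at EC20 final and 2 min further read for enhancement.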
TRPML1 ag – human mucolipin-1 channel agonism; Q9GZU1; TRPML1-expressing cells, Ca2+ dye fluorescence, FDSS; host cell line not named in the record; reference of the full effect not given here; activation, % (concentration not given with the values); 0.12% of 410,000 active; in the data active = activation above about 50%; inconclusive = about 30% to 50%; inactive = below about 30%; further: 0% is about no effect; the text of the record puts the active cut at 80%
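Cells: TRPML1-DL, 1X Tet inducer, ~16 h at 37 degrees C/5% CO2. Dye: ABD Ca8 no-wash + quencher, 45-90 min RT. Read: 10 s baseline, compound add, 110 s agonist phase; 54-4 EC80 (4uM final), 110 s antagonist phase.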
TRPML1 inh – human mucolipin-1 channel inhibition; TRPML1-inducible cells, Ca2+ dye fluorescence, FDSS; active compounds read low; inhibition of EC80 agonist-evoked calcium signal; AID 624415; activity change, negative = inhibition, % (concentration not given with the values); 0.02% of 390,000 active; in the data active means activity change below about -50%; inconclusive means about -30% to -50%; inactive means above about -30%;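 further: stimulus is agonist 54-4 at its EC80 concentration; on the % scale 0 is the no-effect control and ±100 the full control effect; the text of the record puts the active cut at -80%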
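Calcium fluorescence in TRPML1-DL cells induced overnight with Tet: a 110 s read after compound pin addition, then a 110 s antagonist read after challenge with 54-4 at 4 uM final (EC80).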
CtBP-E1A inh – CtBP/E1A binding inhibition. AlphaScreen GST-E1A/His-CtBP binding, 1536-well; active compounds read low; control for the full effect not named in the record. activity change, % (concentration not given with the values). 0.49% of 340,000 active; in the data active means activity change below about -65%; inconclusive means about -30% to -65%; inactive means above about -30%; further: on the % scale 0 is the no-effect control and ±100 the full control effect
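Steps: dispense buffer (Tris pH 8.0, NaCl 300 mM, TCEP 1 mM, BSA, Tween 20); add 5X protein mix (GST-E1A, His-CtBP, 125 nM each); pin 23 nL compound; 2 h at 37 °C, dark; add 5X beads (50 ug/mL); 1 h; read.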
Six1-Eya2 blk – blocks human Six1 binding to Eya2; AlphaScreen GST-Six1/His-Eya2 binding, biochemical; active compounds read low; control for the full effect not named in the record; activity change, % (no concentration beside the values); 0.56% of 360,000 active; AID 651725; in the data active = activity change below about -65%; inconclusive = about -30% to -65%; inactive = above about -30%; further: on the % scale 0 is the no-effect control and ±100 the full control effect
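GST-Six1 + His-Eya2 (5X stock: 250/500 nM); Tris pH 8.0, 300 mM NaCl, 0.05% BSA, 0.02% Tween 20; GSH donor/Ni acceptor beads; 1 h 37 °C dark; AlphaScreen readout.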
The depositor's hits bear a star; ? = inconclusive; / = not tested or not shown; & = joins results of further samples. Compounds were not picked by outcome; overall some 0.95% were active at least once.

SMILES | D2 potentiator | TRPV1 PAM | TRPML1 ag | TRPML1 inh | CtBP-E1A inh | Six1-Eya2 blk
O=C(NCc1cccc(Cl)c1)c1ccc2c(c1)OCCO2 | -5 | -21 | 0.5 | -4 | 5 | 3
CCOC(=O)N1CCN(C(=O)CSc2nnc(Cc3cccn3C)n2CCc2ccccc2)CC1 | -3 | 0 | 0.1 | -5 | -7 | -3
CC(=O)c1nc2ccccc2n1S(=O)(=O)c1ccc(C)cc1 | -4 | -1 | 0.7 | -2 | 0 | 2
COc1ccc2c3c1OC1CC(O)C=CC31CCN(C)C2 (stereo unspecified) | 1&1 | 10&27 | -0.2&0.0 | -8&18 | 7&-1 | 6&3
NC(=O)c1ccc(NC(=O)COC(=O)CCc2ccc(S(=O)(=O)N3CCCCC3)cc2)cc1 | -3 | 5 | -0.3 | -6 | 9 | -1
O=C(O)C1CCCN(S(=O)(=O)c2cccc3cccnc23)C1 (stereo unspecified) | -8 | -8 | -0.2 | -2 | 7 | -4
O=C(Nc1cccnc1)c1noc2c1CCCC2 | -4 | 2 | 0.3 | 6 | -1 | 5
Cc1ccc2c(c1)C(=O)CC(c1ccccc1)S2 (stereo unspecified) | -6 | / | 3.3 | 14 | 19 | 31
CCNc1nc(NC(C)C)nc(N(C#N)CCOc2ccccc2)n1 | 1 | -1 | 0.9 | 2 | 0 | 3
O=c1cc(C(Cl)(Cl)Cl)oc2c1ccc1ccccc12 | 85* | -12 | 5.9 | 39 | -10 | 4

Sorted by the number under D2 potentiator (high to low): three from the list above.
smiles,D2 potentiator,TRPML1 inh,CtBP-E1A inh,Six1-Eya2 blk
CCNc1nc(NC(C)C)nc(N(C#N)CCOc2ccccc2)n1,1,2,0,3
NC(=O)c1ccc(NC(=O)COC(=O)CCc2ccc(S(=O)(=O)N3CCCCC3)cc2)cc1,-3,-6,9,-1
O=C(O)C1CCCN(S(=O)(=O)c2cccc3cccnc23)C1 (stereo unspecified),-8,-2,7,-4

More entries.
SMILES | D2 potentiator | TRPV1 PAM | TRPML1 ag | TRPML1 inh | CtBP-E1A inh | Six1-Eya2 blk
CCN(CC)c1ccc(NC(=O)Nc2cccc(C(C)=O)c2)cc1 | -16 | -28 | -0.1 | 71 | ? | 0
N#Cc1c(-c2ccco2)nc(NCC2CCCO2)[nH]c1=O (stereo unspecified) | 0 | 3 | -0.5 | 33 | 0 | 0
Cc1ccccc1OCC(=O)Nc1ccc2c(c1)OCCO2 | -12 | -26 | 0.9 | 6 | -9 | -20
NC(=O)N/N=C1\c2ccccc2-c2c(C(N)=O)cccc21 | -3 | 21 | / | / | ? | -25
Cn1c(=O)c2c(nc(N3CCOCC3)n2C)n(C)c1=O | -7 | 4 | 0.1 | 10 | 8 | -1
COc1cc(/C=C/C(=O)Nc2ccc(OC)c(S(=O)(=O)N3CCOCC3)c2)ccc1OCC#N | 3 | / | 0.7 | 1 | ? | ?
COc1ccccc1-c1nc(NC(C)=O)n[nH]1 | -19 | -15 | -0.2 | -5 | -2 | 8
COc1cc(/C=N/O)c(Br)cc1OCC(=O)Nc1ccccc1C | 19 | 4 | -0.1 | 8 | 3 | 5
Cn1ccc(C(=O)Nc2ccc(Br)cc2Br)n1 | -14 | -9 | 0.5 | -15 | 22 | 0
CC(=O)Nc1ccc(CN2CCC(Oc3ccc(C(=O)N4CCCC4)cc3)CC2)cc1 | -23 | 0 | 0.2 | 16 | -3 | -1
CC(=O)Nc1cccc(-c2ccnc3c2CC(C)(C(=O)Nc2ccc(Cl)c(C(F)(F)F)c2)O3)c1 (stereo unspecified) | 8 | / | 1.5 | / | -24 | ?
O=S(=O)(Nc1nc2ccccc2s1)c1cc(F)ccc1F | 19 | 12 | -0.5 | 23 | -2 | 0
C[C@@]12CCC=C[C@H]1[C@H](c1ccc(/C=C/c3ccccc3)cc1F)N(Cc1ccccc1)C2=O | -17 | -61 | -0.5 | 71 | -17 | -8
CCOC(=O)c1ccc(S(=O)(=O)NNC(=O)COc2cccc(C)c2)cc1 | -10 | 8 | -0.2 | -12 | 2 | 2
CC(=O)N1CCN(S(=O)(=O)c2cccc(C(=O)N(C)Cc3ccc(C)o3)c2)CC1 | -15 | -8 | -0.8 | 1 | 0 | 4
CCc1cc2c3c(c1)C(C)CC(C)(C)N3C(=O)/C2=C1\SC(=O)NC1=O (stereo unspecified) | -4 | -11 | 1.8 | 14 | 5 | 3
CC1=NN(C(N)=S)C(C)(C)C1 | -4 | / | 5.0 | 27 | 2 | -1
Cc1ccc(OC(=O)CCC(=O)Nc2ccc(Br)cc2)cc1 | -12 | 4 | 0.4 | -7 | 16 | 2
O=C(COC(=O)CCC(=O)c1ccc(Cl)cc1)NC1CC1 | 3 | 1 | -0.7 | 8 | 0 | 7
O=C1N=C(N2CCCCC2)S/C1=C\c1ccc(Br)cc1 | 4 | 7 | 0.3 | 1 | / | 4
Cc1ccc(S(=O)(=O)N2C(=O)CCC2C(=O)O/N=C(\N)c2ccc([N+](=O)[O-])cc2)cc1 (stereo unspecified) | 0 | 8 | -0.6 | 2 | 1 | -3
Cc1nn(CC(=O)O)c(C)c1N | -1 | 2 | 0.4 | 18 | 5 | -5
COc1ccc(-c2c(=O)n(OCc3ccccn3)c3ccccc3[n+]2[O-])cc1OC | -14 | -5 | -0.8 | 9 | -1 | -1
COc1ccc(CCNC(=O)Cn2c(=O)n(Cc3ccco3)c(=O)c3ccc(Cl)cc32)cc1OC | -27 | -14 | -0.1 | -8 | -9 | -14
C/C(=N\NC(=O)CNc1cccc(Cl)c1C)C1CC1 | -10 | -5 | -0.1 | -1 | 5 | -4
Cc1cc(C)cc(OCC(=O)NCc2cc(C)nc3ccccc23)c1 | -9 | -15 | 1.9 | 22 | / | 5
O=C(CN1CCC(C(=O)c2cccc(Cl)c2)CC1)Nc1cccc(C(=O)O)c1 | -2 | 2 | -0.7 | -6 | -1 | 2
CC(=O)Nc1ccc(S(=O)(=O)NCCC(=O)Nc2ccc(C)c(F)c2)cc1 | -5 | 10 | 0.5 | -17 | -19 | 6
COc1ccc(N2CCN(c3nc(=S)n(-c4ccccc4)c(C)c3C(C)=O)CC2)cc1 | 5 | -15 | 0.2 | -5 | 11 | -1
CN1CCN(CC(=O)Nc2sc3c(c2C(=O)Nc2ccccc2)CCCC3)CC1 | -10 | -3 | 0.6 | 8 | 6 | 8
Nn1c(CSc2ccccn2)nc2ccccc2c1=O | 7 | 5 | -0.3 | -22 | -1 | 5
Cc1sc2ncnc(OCC(=O)N3CC(=O)Nc4ccccc43)c2c1C | -8 | 96* | -0.1 | -2 | 6 | -2
O=C(N/N=C\c1ccccn1)c1cccc(C(=O)N/N=C\c2ccccn2)n1 | 15 | / | -0.1 | 6 | ? | ?
CN(C)CCn1c(=O)n(-c2ccc(F)cc2)c(=O)c2c3c(sc21)CCCCC3 | -7 | / | 0.6 | 7 | -1 | -6
C[C@H]1CN([C@@H](C)CO)C(=O)CCCn2nncc2CO[C@H]1CN(C)S(=O)(=O)c1cccc(C#N)c1 | -3 | / | 0.3 | -1 | -6 | -2
CSc1ccc(CN2CCN(C(=O)CC(C)C)CC2)cc1 | -9 | -29 | 0.1 | 1 | -5 | 1
O=C(c1cn(-c2ccccc2)nc1-c1cccs1)N1CCN(c2ccccn2)CC1 | -18 | -1 | 0.8 | 16 | -2 | -18
CCOc1cc(NC(=O)c2ccco2)c(OCC)cc1NC(=O)c1cc(OC)c(OC)c(OC)c1 | 7 | 2 | 0.3 | 15 | -1 | 11
O=C(Cc1cccc(NC(=O)C2CCN(C(=O)C3CCCC3)CC2)c1)Nc1cccc(C(=O)N2CCOCC2)c1 | / | / | -0.7 | -2 | 2 | 0
CN1/C(=C\C(=O)c2cccc([N+](=O)[O-])c2)Sc2ccccc21 | 0 | 4 | 0.4 | 1 | 0 | 3

Full records from above. Screens in order: D2 potentiator, TRPV1 PAM, TRPML1 ag, TRPML1 inh, CtBP-E1A inh, Six1-Eya2 blk
O=C(c1cn(-c2ccccc2)nc1-c1cccs1)N1CCN(c2ccccn2)CC1 is entered as -18, -1, 0.8, 16, -2, -18
CN(C)CCn1c(=O)n(-c2ccc(F)cc2)c(=O)c2c3c(sc21)CCCCC3 is entered as -7, /, 0.6, 7, -1, -6

Next section
SMILES | D2 potentiator | TRPV1 PAM | TRPML1 ag | TRPML1 inh | CtBP-E1A inh | Six1-Eya2 blk
O=C(NCC1CCCN1S(=O)(=O)c1cccs1)c1cccc(F)c1 (stereo unspecified) | -15 | 7 | 1.9 | 44 | 0 | 0
COc1ccc([N+](=O)[O-])cc1NC(=O)Nc1cccc(Cl)c1 | -29 | 6 | 0.3 | 19 | 2 | -1
O=[N+]([O-])c1ccc2nc(-c3ccccc3)n(OCc3ccc(Cl)cc3)c2c1 | 10 | -1 | 0.8 | 13 | -13 | -17
N#Cc1cccc(S(=O)(=O)NCC(=O)OCC(=O)NCc2ccccc2)c1 | 0 | -2 | 0.7 | -1 | 6 | 4
Cc1noc(C)c1S(=O)(=O)N(Cc1ccccc1)C(C)C | -4 | 12 | -0.6 | 16 | 16 | 5
COc1cccc(/C=N/NC(=O)c2[nH]c(C)c(C(=O)N/N=C/c3cccc(OC)c3O)c2C)c1O | -9 | -2 | 0.1 | 24 | -1 | -92*
Cc1ccsc1C(=O)N1CCCC(C(=O)c2cc(F)ccc2F)C1 (stereo unspecified) | -7 | -9 | 0.1 | 4 | / | 27
Cc1nc2cccc(C(=O)NCc3ccccc3)c2o1 | 6 | -1 | 3.1 | 3 | 0 | -1
COc1cc(/C=C/C(=O)OCC(=O)NCCCc2ccccc2)ccc1O | -12 | / | 0.9 | -2 | 7 | -6
Cc1ccc(N2C(=O)C3C4C=CC(CNC(=S)N5CCN(c6ccccn6)CC5)(O4)C3C2=O)cc1 (stereo unspecified) | 4 | 7 | 0.6 | -21 | / | -1
COc1cc(C(=O)NCC(=O)N/N=C(/C)c2ccc3c(c2)CCCC3)cc(OC)c1OC | -12 | -8 | -0.8 | -1 | -1 | 1
COc1cccc(CNc2ccc(S(=O)(=O)N3CCCC3)cn2)c1 | 1 | / | -0.2 | 8 | / | 2
O=C(Nc1ccc(C(=O)O)cc1)/C(=C\C=C\c1ccccc1)NC(=O)c1ccc(Br)cc1 | -1 | -28 | -0.1 | 0 | -9 | -4
O=C(COC(=O)C1=COCCO1)Nc1ccc2c(c1)OCO2 | -9 | 2 | 0.4 | 24 | 6 | -1
O=c1/c(=C\c2cccn2-c2ccccc2)sc2nc3ccccc3n12 | -9 | -5 | 0.2 | 1 | 0 | 0
OC(c1ccc(F)c(F)c1)c1nc(-c2csc3ccccc23)cs1 (stereo unspecified) | -15 | / | 0.0 | / | 14 | 9
CCOc1ccc(N(Cc2nnc3n2CCCCC3)C(=O)Nc2cccc(C)c2)cc1 | 3 | 20 | -0.4 | 44 | 8 | -6
COc1ccc(Cc2n[nH]c(=S)n2N)cc1OC | -6 | -1 | 1.0 | -2 | 8 | 1
COc1ccc(-c2csc(C(C)(NC(C)=O)c3ccccc3)n2)cn1 (stereo unspecified) | -5 | / | -0.3 | / | 3 | -3

Part of the list above in a different format:
Structure	D2 potentiator	TRPV1 PAM	TRPML1 ag	TRPML1 inh	CtBP-E1A inh	Six1-Eya2 blk
COc1cc(C(=O)NCC(=O)N/N=C(/C)c2ccc3c(c2)CCCC3)cc(OC)c1OC	-12	-8	-0.8	-1	-1	1
COc1cccc(CNc2ccc(S(=O)(=O)N3CCCC3)cn2)c1	1	/	-0.2	8	/	2
